AmpC nodet inh: AmpC beta-lactamase inhibition, detergent-free assay. Potency, µM (series often up to 28.7 µM), without a hit: at the highest dose activity change, negative = inhibition. P00811. AmpC nitrocefin hydrolysis, absorbance 480 nm, no detergent; potencies from a single point are estimates. 71,000 compounds, 1.8% hits; active = falling curve, for most hits resting on a single point; inconclusive = weak or doubtful change; inactive = flat or rising curve; also: % of control where 0% means no effect; about half of the hits show no inhibition at the top dose; a quarter of the inactives give rising signals
Target sequence (P00811 whole entry, looked up): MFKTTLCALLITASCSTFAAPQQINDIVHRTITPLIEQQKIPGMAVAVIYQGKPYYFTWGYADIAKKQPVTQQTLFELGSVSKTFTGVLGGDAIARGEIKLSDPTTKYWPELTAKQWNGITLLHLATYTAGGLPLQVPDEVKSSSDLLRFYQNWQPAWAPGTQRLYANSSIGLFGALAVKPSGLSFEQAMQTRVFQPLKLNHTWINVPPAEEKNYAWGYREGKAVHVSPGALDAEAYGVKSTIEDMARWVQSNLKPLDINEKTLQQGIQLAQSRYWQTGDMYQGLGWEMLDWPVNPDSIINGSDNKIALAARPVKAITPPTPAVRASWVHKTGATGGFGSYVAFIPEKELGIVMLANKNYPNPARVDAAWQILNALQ
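AmpC in 20 mM phosphate buffer pH 7.0 was preincubated 15 min at room temperature with compounds. Nitrocefin (800 uM stock) was then added and hydrolysis followed at 480 nm every 20 s for 4 min.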
An asterisk follows results filed as active; & = joins results of further samples; [ ] = another dose, or the depositor's remark. Potency is read from the fitted curve at half-maximal effect. A portion of the library. The share of hits here may be higher or lower than overall.

For CCOC(=O)CC(/C(C)=N\O)c1ccccc1 (stereo unspecified) the results were AmpC nodet inh 1%.
`CCCC(=O)Nc1ccc(-c2nc3cc(C)ccc3o2)cc1` gave AmpC nodet inh 25%.
`CC(NC(=O)C1CCN(c2nnc(-n3cccc3)s2)CC1)C12CC3CC(CC(C3)C1)C2` (stereo unspecified) gave AmpC nodet inh 73%.
Screening Cc1cc(C)nc(-n2nc(C)c(C3(O)C(=O)Nc4ccc(F)cc43)c2N)n1 (stereo unspecified) returned AmpC nodet inh 13%.
Screening O=C(Nc1ccccc1Oc1ccccc1)C1CC1 returned AmpC nodet inh 22%.
`Cc1nc(CC(=O)Nc2nc(C(C)(C)C)cs2)cs1` gave AmpC nodet inh 13%.
For CCC1CCCCN1Cc1nc2c(c(=O)n(C)c(=O)n2C)n1CCC(C)C (stereo unspecified) the results were AmpC nodet inh 92%.
Screening O=C(Nc1cccc(NC(=O)c2ccc(Br)o2)n1)c1ccc(Br)o1 returned AmpC nodet inh -18%.
For O=C(Nc1ccc(Oc2ccccc2)cc1)c1ccco1 the results were AmpC nodet inh -11%.
For Cc1cc(C(=O)NCCCN2CCCC2=O)no1 the results were AmpC nodet inh 54%.
COCCNC(=O)c1c(NC(=O)c2ccco2)n(Cc2ccccc2)c2nc3ccccc3nc12 was read as AmpC nodet inh 109%.
For CC(=O)Nc1ccc(S(=O)(=O)N2CCCN(S(=O)(=O)c3ccc(C)cc3)CC2)cc1 the results were AmpC nodet inh 65%.
For COc1ccc2[nH]c(=O)c(CN(C(=O)c3cccnc3)c3ccccc3OC)cc2c1 the results were AmpC nodet inh 20%.
`CN(C)CCOC(=O)COc1ccc(Cl)cc1` gave AmpC nodet inh -11%[12.8 µM].
CCc1cc(=O)oc2cc(C)cc(OC(C)C(=O)O)c12 (stereo unspecified) was read as AmpC nodet inh -16%.
Screening COC(=O)Cn1c(CN2CCOCC2)nc2c1c(=O)n(C)c(=O)n2C returned AmpC nodet inh 26%.
For O=C(NCC12CC3CC(C1)CC(CNC(=O)N1CCCC1)(C3)C2)N1CCCC1 the results were AmpC nodet inh 27%.
CCN1CCN(C2CCN(C(C)=O)CC2)CC1 was read as AmpC nodet inh -1%.
Cc1ccc2c(c1)N(C(=O)CSc1nncn1C)C(C)(C)c1ssc(=S)c1-2 was read as AmpC nodet inh 128%.
Screening Cc1c(C#N)c2ccccc2n1CC(=O)NCC1CCCO1 (stereo unspecified) returned AmpC nodet inh 0%.

Entries above that have nitrogen in an aromatic ring, in the order listed:
`CCCC(=O)Nc1ccc(-c2nc3cc(C)ccc3o2)cc1` gave AmpC nodet inh 25%.
`CC(NC(=O)C1CCN(c2nnc(-n3cccc3)s2)CC1)C12CC3CC(CC(C3)C1)C2` (stereo unspecified) gave AmpC nodet inh 73%.
Screening Cc1cc(C)nc(-n2nc(C)c(C3(O)C(=O)Nc4ccc(F)cc43)c2N)n1 (stereo unspecified) returned AmpC nodet inh 13%.
`Cc1nc(CC(=O)Nc2nc(C(C)(C)C)cs2)cs1` gave AmpC nodet inh 13%.
For CCC1CCCCN1Cc1nc2c(c(=O)n(C)c(=O)n2C)n1CCC(C)C (stereo unspecified) the results were AmpC nodet inh 92%.
Screening O=C(Nc1cccc(NC(=O)c2ccc(Br)o2)n1)c1ccc(Br)o1 returned AmpC nodet inh -18%.
For Cc1cc(C(=O)NCCCN2CCCC2=O)no1 the results were AmpC nodet inh 54%.
COCCNC(=O)c1c(NC(=O)c2ccco2)n(Cc2ccccc2)c2nc3ccccc3nc12 was read as AmpC nodet inh 109%.
For COc1ccc2[nH]c(=O)c(CN(C(=O)c3cccnc3)c3ccccc3OC)cc2c1 the results were AmpC nodet inh 20%.
Screening COC(=O)Cn1c(CN2CCOCC2)nc2c1c(=O)n(C)c(=O)n2C returned AmpC nodet inh 26%.
Cc1ccc2c(c1)N(C(=O)CSc1nncn1C)C(C)(C)c1ssc(=S)c1-2 was read as AmpC nodet inh 128%.
Screening Cc1c(C#N)c2ccccc2n1CC(=O)NCC1CCCO1 (stereo unspecified) returned AmpC nodet inh 0%.

The list continues:
`O=S(=O)(CCSc1nc2ccccc2o1)c1nc2ccccc2s1` gave AmpC nodet inh -16%.
Screening O=C1C(=O)N(CCCN2CCOCC2)C(c2cccs2)/C1=C(/O)c1ccc2c(c1)OCO2 (stereo unspecified) returned AmpC nodet inh 2%.
`COC(=O)c1ccccc1NC(=O)C1CC(=O)N(c2ccc(F)cc2)C1` (stereo unspecified) gave AmpC nodet inh 29%.
Screening Cc1ccc(C(=O)O)cc1S(=O)(=O)N1CCC(C(=O)O)CC1 returned AmpC nodet inh 7%.
Cc1nc2nc(-c3ccco3)[nH]n2c(=O)c1Cc1ccccc1 was read as AmpC nodet inh 18%.
For CCCCc1nnc(SCCSc2nnc(CCCC)n2N)n1N the results were AmpC nodet inh 9%.
For Cn1c(=O)c2c(nc(NCCNC(=O)c3ccco3)n2Cc2ccc(Cl)cc2Cl)n(C)c1=O the results were AmpC nodet inh 34%.
For O=C(O)c1ccccc1Cl the results were AmpC nodet inh -7%.
Screening Cn1c(=O)cc(SCC(=O)N2CCC3(CC2)OCCO3)c2ccc(Cl)cc21 returned AmpC nodet inh 137%.
Screening O=C(Cn1c(=O)n(Cc2ccco2)c(=O)c2ccccc21)NCC1CCCO1 (stereo unspecified) returned AmpC nodet inh -2%.
`CC(=O)N(C1=NCCCS1)c1ccccc1F` gave AmpC nodet inh -15%.
Screening CC(=O)c1c(O)n(C2CCCCCC2)c(=O)[nH]c1=O returned AmpC nodet inh -5%.
For O=C(Cn1cccc1)Nc1ccc(OC(F)(F)F)cc1 the results were AmpC nodet inh -3%.
For O=C1CC(c2cccs2)Cc2nc(NCC3CCCO3)ncc21 (stereo unspecified) the results were AmpC nodet inh 14%.
CN(C)c1ccc(-c2cc(N(C)Cc3ccco3)ncn2)cc1 was read as AmpC nodet inh 64%.
CCc1cc2c(SCC(=O)O)ncnc2s1 was read as AmpC nodet inh 8%.
For CCOC(=O)C1=C(C)N=c2s/c(=C\C(=O)OC)c(=O)n2C1c1ccc(OC)cc1 (stereo unspecified) the results were AmpC nodet inh -4%.
For Cc1cccc(-n2c(CNC(=O)c3ccccc3)nnc2SCC(=O)Nc2nccs2)c1 the results were AmpC nodet inh 37%.
Cc1onc(-c2ccccc2)c1C(=O)NCCc1c[nH]c2ccccc12 was read as AmpC nodet inh 13%.
Screening COC(=O)c1c(NC(=O)c2ccco2)sc(C(=O)N2CCCC2)c1C returned AmpC nodet inh 58%.
`CC(C)CC(=O)Nc1ccc(F)c(Cl)c1` gave AmpC nodet inh 2%.
For CC1(C)OC(=O)CC1C(=O)NCc1ccccc1 (stereo unspecified) the results were AmpC nodet inh 0%.
`Cc1cnc(NC(=O)C2=C(O)c3ccccc3S(=O)(=O)N2C)s1` gave AmpC nodet inh -11%.
CC(C)C(OC(=O)c1cc2sccc2n1C)C(=O)NCC1CCCO1 (stereo unspecified) was read as AmpC nodet inh 100%.
`Cc1cc2ccccc2nc1SCC(=O)N1CCCC1` gave AmpC nodet inh 33%.
O=C(O)CCS(=O)(=O)c1cccc2cccnc12 was read as AmpC nodet inh 4%.
COc1ccc(CN=CC2=C(O)CC(C)(C)CC2=O)cc1 was read as AmpC nodet inh 13%.
`COc1ccc(NC(=O)CSc2nnc(Cn3c(=O)sc4ccccc43)n2C)cc1OC` gave AmpC nodet inh 49%.
`Cc1cc(C)nc(NC2=NCCN2C(=O)NC2CCCCC2)n1` gave AmpC nodet inh 12%.
`CN1CC[C@@]2(CCCN(C(=O)c3cc(C(F)(F)F)cc(C(F)(F)F)c3)C2)C1` gave AmpC nodet inh -1%.
For COc1ccc2nc(NC(=O)Cn3cnc4c(=O)n(C)c(=O)n(C)c43)sc2c1 the results were AmpC nodet inh 73%.
`COC(=O)[C@@H]1O[C@@H](SCCN)[C@@H](O)[C@H](O)[C@H]1O` gave AmpC nodet inh 2%[5.75 µM].
Screening Cc1ccc(NC(=O)CN2C(=O)NC(Cc3ccccc3)C2=O)cc1 (stereo unspecified) returned AmpC nodet inh -4%.
`C=CCN1C(=CCO)[C@H]2C[C@H]3[C@@H]1CC[C@@]31c3ccccc3N3C=C4[C@@H]5N(/C=C/2[C@H]31)c1ccccc1[C@]51CC[C@H]2[C@H]1C[C@@H]4/C(=C/CO)N2CC=C` gave AmpC nodet inh 24%[12.8 µM].
`CC(C)(C)NC(=O)C(c1cccs1)N(CC1CCCO1)C(=O)Cn1nnc(-c2cccs2)n1` (stereo unspecified) gave AmpC nodet inh 45%.
O=C(Cn1cnc2ccccc2c1=O)NCCC(=O)N1CCN(c2ccccc2)CC1 was read as AmpC nodet inh 48%.
Screening COc1c(F)c(F)c(-c2csc(N)n2)c(F)c1F returned AmpC nodet inh 2%.
Screening CC(C)c1nc2oc3c(N4CCNCC4)ncnc3c2c2c1CCC2 returned AmpC nodet inh 31%.
For O=C1c2ccccc2NC2(CCCCC2)N1c1ccc(O)cc1 the results were AmpC nodet inh 4%.
For COc1ccccc1OCCCn1cc(C(=O)c2ccco2)c2ccccc21 the results were AmpC nodet inh 33%.
For O=C(c1ccccc1)c1ccc(OC(=O)N2CCCC2)cc1 the results were AmpC nodet inh 12%.
`CN1CCN(C(=O)c2ccccc2NC(=O)CCN2C(=O)c3ccccc3C2=O)CC1` gave AmpC nodet inh -3%.
Screening COc1ccc(OC)c(CNC(=O)CCN2C(=O)COc3ccccc32)c1 returned AmpC nodet inh -4%.
`COc1ccc(N2CCN(CCNC(=O)C3CC(=O)N(C4CCCC4)C3)CC2)cc1` (stereo unspecified) gave AmpC nodet inh 24%.
Screening CCOc1cccc(N)c1 returned AmpC nodet inh -4%.
Screening N#CNC1=NCN(CCc2ccccc2)CN1 returned AmpC nodet inh -1%.
`N#C/C(C(=O)N1CCOCC1)=c1\s/c(=C/c2ccncc2)c(=O)n1-c1ccccc1` gave AmpC nodet inh 11%.
O=S(=O)(NCc1ccc(Cl)cc1)c1cnc[nH]1 was read as AmpC nodet inh -10%.
For COc1ccc(N2CC(C(=O)Nc3ccc(S(=O)(=O)Nc4nc(C)cc(C)n4)cc3)CC2=O)cc1 (stereo unspecified) the results were AmpC nodet inh 15%.
Cc1nc(N2CCN(Cc3ccccc3)CC2)nc2c1C(=O)CC(c1ccco1)C2 (stereo unspecified) was read as AmpC nodet inh 48%.
`Cn1c(=O)c(-c2cc(F)cc(F)c2)nc2cnc(N3CCOCC3)nc21` gave AmpC nodet inh 0%.
`COCCNC(=O)c1cc2c(=O)n3cccc(C)c3nc2n1C` gave AmpC nodet inh 14%.
`O=C(O)C(Cl)Cl` gave AmpC nodet inh -10%.
COc1ccc(CNC(=O)c2cccc(N(C)C)c2)cc1 was read as AmpC nodet inh 0%.
For COc1ccc(-c2cc(C(=O)N(C)Cc3ccccc3)no2)cc1OC the results were AmpC nodet inh 129%.
Screening C[C@@]12CC[C@H]3[C@@H](CC[C@@H]4C[C@H](O)CC[C@]43C)[C@H]1CC[C@H]2O returned AmpC nodet inh 10%.
Screening CCc1ccccc1NC(=O)CSc1nnc([C@@H](NC(=O)OC(C)(C)C)C(C)CC)o1 (stereo partly specified) returned AmpC nodet inh 46%.
For CCCCN1CCC(n2c(=O)[nH]c3ccccc32)CC1 the results were AmpC nodet inh -1%.
Cc1cc(C(=O)Nc2sc3c(c2C#N)CCC(C)C3)cs1 (stereo unspecified) was read as AmpC nodet inh -15%.
ON(CCc1ccncc1)Cc1ccccc1 was read as AmpC nodet inh 4%[5.75 µM].

Compounds shown so far with a CF3 group:
For O=C(Cn1cccc1)Nc1ccc(OC(F)(F)F)cc1 the results were AmpC nodet inh -3%.
`CN1CC[C@@]2(CCCN(C(=O)c3cc(C(F)(F)F)cc(C(F)(F)F)c3)C2)C1` gave AmpC nodet inh -1%.

Additional structures:
For O=c1nc2n(c3ncccc13)CCC2 the results were AmpC nodet inh -12%.
For Nc1nnc(-c2ccco2)s1 the results were AmpC nodet inh -6%.
Screening COc1ccc(/C(O)=C2/C(=O)C(=O)N(Cc3cccnc3)C2c2ccccn2)cc1 (stereo unspecified) returned AmpC nodet inh 0%.
CCCS(=O)(=O)N1CCCC(C(=O)NCCCN(CC)c2cccc(C)c2)C1 (stereo unspecified) was read as AmpC nodet inh 109%.
For Cc1cc(NC(=O)C23CCC(C)(C(=O)O2)C3(C)C)no1 (stereo unspecified) the results were AmpC nodet inh -3%.
O=C(Nc1ccc(CN2CCCCC2)cc1)c1ccc(Br)o1 was read as AmpC nodet inh -9%.
`CCCc1nn(C)c2c1C(c1ccncc1)C(C#N)=C(N)O2` (stereo unspecified) gave AmpC nodet inh 1%.
O=[N+]([O-])c1ccc2c3c(cccc13)CC2 was read as AmpC nodet inh inconclusive.
COc1ccc(-c2n[nH]c(C)c2-c2ccc(Cl)cc2)c(O)c1OC was read as AmpC nodet inh 69%.
For O=C(c1ccccc1)c1c[nH]c2cc3c(cc2c1=O)OCO3 the results were AmpC nodet inh -14%.
Screening Cc1ccc(C)c(N2CCN(C(=O)CCCCn3c(=O)[nH]c4ccccc4c3=O)CC2)c1 returned AmpC nodet inh 70%.
CC1CN(S(=O)(=O)c2cccc(-c3cn4cccnc4n3)c2)CC(C)O1 (stereo unspecified) was read as AmpC nodet inh 21%.
Screening CC(Oc1ccc2oc(-c3ccccc3)c(C(=O)O)c2c1)C(=O)O (stereo unspecified) returned AmpC nodet inh -5%.
For CCCC(=O)Nc1cc(Cl)ccc1N1CCN(C(=O)CC)CC1 the results were AmpC nodet inh 43%.
Cc1cccn2cc(CNC(=O)C3CCCCC3)nc12 was read as AmpC nodet inh -8%.
For CC(C)N1C(=O)CCC1C(=O)N1CCCc2ccccc21 (stereo unspecified) the results were AmpC nodet inh 5%.
Screening CCOc1ccc(OCC(=O)c2c(O)c3ccccc3oc2=O)cc1 returned AmpC nodet inh -23%.
For COCCn1c(-c2ccccc2)nc(=S)c2c1CC(C)(C)OC2 the results were AmpC nodet inh -1%.
`CN=C(NC#N)NCCSCc1nc[nH]c1C` gave AmpC nodet inh 3%&28%&4%.
`O=C(COC(=O)c1ccccn1)c1ccc(Br)cc1` gave AmpC nodet inh 23%.
For COc1ccc(-c2noc(-c3cc(C)cc(C)c3)n2)cc1OC the results were AmpC nodet inh 1.3µM*[single pt active].

Screens from PubChem BioAssay.
